Source: PubChem (Johns Hopkins Ion Channel Center)
KCNQ2 inh = KCNQ2 potassium channel inhibitors, primary screen, cell-based, CHO-K1, FluxOR thallium flux, B-score (AID 2156). B-score at 10 µM. 20 min; active compounds read low; only compounds with negative scores are shown here; some inactives read as strong as hits. 310,000 tested, 1.1% active. O88943;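 active = fluorescence ratio B-score at most minus 3 library SDs, with starting brightness B-score within 2 library SDs, cut at about -5.5 in these data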
Target sequence (O88943 whole entry, looked up): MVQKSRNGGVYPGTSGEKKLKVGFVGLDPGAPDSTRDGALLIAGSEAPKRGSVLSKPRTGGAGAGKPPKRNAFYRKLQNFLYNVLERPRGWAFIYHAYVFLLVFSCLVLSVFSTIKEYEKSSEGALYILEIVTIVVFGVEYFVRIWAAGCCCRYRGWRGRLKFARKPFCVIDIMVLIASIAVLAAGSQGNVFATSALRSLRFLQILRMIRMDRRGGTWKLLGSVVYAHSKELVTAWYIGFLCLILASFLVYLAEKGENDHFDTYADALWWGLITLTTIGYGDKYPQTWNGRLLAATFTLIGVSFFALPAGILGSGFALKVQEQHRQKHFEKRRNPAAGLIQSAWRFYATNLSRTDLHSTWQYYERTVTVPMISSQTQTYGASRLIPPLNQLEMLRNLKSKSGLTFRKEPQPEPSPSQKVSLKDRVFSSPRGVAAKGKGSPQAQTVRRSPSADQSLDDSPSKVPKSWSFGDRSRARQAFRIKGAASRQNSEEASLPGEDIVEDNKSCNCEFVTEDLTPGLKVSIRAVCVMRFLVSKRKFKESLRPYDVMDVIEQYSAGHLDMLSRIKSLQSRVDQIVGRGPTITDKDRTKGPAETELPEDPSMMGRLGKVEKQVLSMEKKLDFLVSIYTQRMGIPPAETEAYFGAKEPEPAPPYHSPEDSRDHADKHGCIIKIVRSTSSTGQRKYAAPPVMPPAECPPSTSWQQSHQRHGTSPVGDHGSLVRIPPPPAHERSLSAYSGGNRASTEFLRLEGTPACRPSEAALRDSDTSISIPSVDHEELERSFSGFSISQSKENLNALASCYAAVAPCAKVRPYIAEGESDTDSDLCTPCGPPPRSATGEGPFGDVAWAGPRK
KCNQ2 inh baseline = second read-out of KCNQ2 inh, no call of its own (marks repeat the call); B-score; measured here: initial fluorescence intensity artifact check;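 brightness before thallium and not channel activity; 0 = typical well and far values either way flag optical interference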
* = called active by the depositor. This is a subset; the hit share may differ from the screen's.

Start of the data: the first 10 entries as a preview:
What do the screens show for `COc1cccc(-c2nc(CS(=O)(=O)CC(=O)N3CCN(C)CC3)c(C)o2)c1`?
KCNQ2 inh: inactive; KCNQ2 inh baseline: 0.26

Results for O=[N+]([O-])c1ccc(N2CCCCC2)s1 ?
KCNQ2 inh: inactive; KCNQ2 inh baseline: 1

What do the screens show for `COc1ccccc1CC(=O)N1CCN(c2ccc([N+](=O)[O-])cc2)CC1`?
KCNQ2 inh: inactive; KCNQ2 inh baseline: -1.6

Results for O=C(C1CCN(Cc2cccs2)CC1)N1CCN(Cc2ccc3c(c2)OCO3)CC1 ?
KCNQ2 inh: inactive; KCNQ2 inh baseline: -1.4

What do the screens show for `CCCc1nnc(NC(=O)Nc2ccccc2OC)s1`?
KCNQ2 inh: inactive; KCNQ2 inh baseline: 1.1

Results for Cc1ccc(OCCOCCOc2ccc(Br)cc2/C=N\NC(=O)c2ccncc2)cc1 ?
KCNQ2 inh: inactive; KCNQ2 inh baseline: -0.27

What do the screens show for `CS(=O)(=O)N1CCC(C(=O)Nc2ccc3c(c2)OCCO3)CC1`?
KCNQ2 inh: inactive; KCNQ2 inh baseline: -1

Results for N#C/C(=C\c1ccccc1[N+](=O)[O-])C(=O)NCc1ccccc1 ?
KCNQ2 inh: inactive; KCNQ2 inh baseline: 0.72

What do the screens show for `COc1ccc(NC(=O)CC2SC(=Nc3ccccc3)NC2=O)c(OC)c1` (stereo not given)?
KCNQ2 inh: inactive; KCNQ2 inh baseline: -0.01

What do the screens show for `Nc1ncc(-n2cncn2)c(-c2ccc(Cl)cc2)n1`?
KCNQ2 inh: inactive; KCNQ2 inh baseline: 1.3

This part in full, from the first entry:
What do the screens show for `COc1cccc(-c2nc(CS(=O)(=O)CC(=O)N3CCN(C)CC3)c(C)o2)c1`?
KCNQ2 inh: inactive; KCNQ2 inh baseline: 0.26

Results for O=[N+]([O-])c1ccc(N2CCCCC2)s1 ?
KCNQ2 inh: inactive; KCNQ2 inh baseline: 1

What do the screens show for `COc1ccccc1CC(=O)N1CCN(c2ccc([N+](=O)[O-])cc2)CC1`?
KCNQ2 inh: inactive; KCNQ2 inh baseline: -1.6

Results for O=C(C1CCN(Cc2cccs2)CC1)N1CCN(Cc2ccc3c(c2)OCO3)CC1 ?
KCNQ2 inh: inactive; KCNQ2 inh baseline: -1.4

What do the screens show for `CCCc1nnc(NC(=O)Nc2ccccc2OC)s1`?
KCNQ2 inh: inactive; KCNQ2 inh baseline: 1.1

Results for Cc1ccc(OCCOCCOc2ccc(Br)cc2/C=N\NC(=O)c2ccncc2)cc1 ?
KCNQ2 inh: inactive; KCNQ2 inh baseline: -0.27

What do the screens show for `CS(=O)(=O)N1CCC(C(=O)Nc2ccc3c(c2)OCCO3)CC1`?
KCNQ2 inh: inactive; KCNQ2 inh baseline: -1

Results for N#C/C(=C\c1ccccc1[N+](=O)[O-])C(=O)NCc1ccccc1 ?
KCNQ2 inh: inactive; KCNQ2 inh baseline: 0.72

What do the screens show for `COc1ccc(NC(=O)CC2SC(=Nc3ccccc3)NC2=O)c(OC)c1` (stereo not given)?
KCNQ2 inh: inactive; KCNQ2 inh baseline: -0.01

What do the screens show for `Nc1ncc(-n2cncn2)c(-c2ccc(Cl)cc2)n1`?
KCNQ2 inh: inactive; KCNQ2 inh baseline: 1.3

Results for O=C(Cn1ccsc1=NC(=O)c1ccco1)c1ccccc1 ?
KCNQ2 inh: inactive; KCNQ2 inh baseline: -1.2

What do the screens show for `Cc1ccc(-n2c(SCC(=O)OC(C)C)nnc2-c2ccccn2)cc1`?
KCNQ2 inh: inactive; KCNQ2 inh baseline: 0.19

Results for CC(C(=O)NC(c1ccccc1)c1ccccc1)N1CCOCC1 (stereo not given) ?
KCNQ2 inh: inactive; KCNQ2 inh baseline: 1.4

How did COC(=O)C1=C(C(=O)OC)[C@@H]2Nc3ccccc3[C@@]23C[C@@H](C(=O)OC)N(C(=O)COCc2ccccc2)C3=N1 do in these assays?
KCNQ2 inh: inactive; KCNQ2 inh baseline: -1

What do the screens show for `N#CCCN(C(=O)COc1ccc(C#N)cc1)c1ccc(F)cc1`?
KCNQ2 inh: inactive; KCNQ2 inh baseline: 0.19

What do the screens show for `CCOC(=O)c1ccc(N2C(=O)C=CC2=O)cc1`?
KCNQ2 inh: inactive; KCNQ2 inh baseline: -3.1

What do the screens show for `CC(C)CCOP(=O)(c1ccc(N(C)C)cc1)C(O)c1c(Cl)cccc1Cl` (stereo not given)?
KCNQ2 inh: -5.6*; KCNQ2 inh baseline: -1.2*

Results for O=C(OCc1ccccc1Cl)c1ccccc1C(=O)c1ccccc1 ?
KCNQ2 inh: -8.3*; KCNQ2 inh baseline: 0.56*

How did COc1ccc(OC)c(-c2cc(C(=O)NCc3ccc(Cl)cc3)no2)c1 do in these assays?
KCNQ2 inh: inactive; KCNQ2 inh baseline: -1.8

How did CN1c2ccc(C=O)c3c(C=O)ccc(c23)N(C)C1(C)C do in these assays?
KCNQ2 inh: inactive; KCNQ2 inh baseline: 7.9

What do the screens show for `O=C(NCCN1C(=O)S/C(=C\c2ccc(OC(F)F)cc2)C1=O)[C@@H]1CCCN1C(=O)c1cccs1`?
KCNQ2 inh: inactive; KCNQ2 inh baseline: 1.1

What do the screens show for `CCOC(=O)Cn1nnnc1C(CC)N(Cc1cccs1)Cc1cc2ccc(OC)cc2[nH]c1=O` (stereo not given)?
KCNQ2 inh: inactive; KCNQ2 inh baseline: -0.01

What do the screens show for `CC1C(=O)N(Cc2ccccc2)c2ccccc2N1C(=O)c1ccccc1` (stereo not given)?
KCNQ2 inh: inactive; KCNQ2 inh baseline: -1.2

How did Cc1cc(OC(C)C(=O)N(Cc2cccs2)C2CCS(=O)(=O)C2)ccc1Cl (stereo not given) do in these assays?
KCNQ2 inh: inactive; KCNQ2 inh baseline: 0.16

Results for CCS(=O)(=O)N1CCN(S(=O)(=O)c2ccccc2)CC1 ?
KCNQ2 inh: inactive; KCNQ2 inh baseline: 0.56

Results for O=c1[nH]c(C2CCCN(S(=O)(=O)c3ccccc3)C2)nc2c1nnn2Cc1cccc(Cl)c1 (stereo not given) ?
KCNQ2 inh: inactive; KCNQ2 inh baseline: -0.54

What do the screens show for `COc1ccc(N2CCSC2C(=O)NN)cc1` (stereo not given)?
KCNQ2 inh: inactive; KCNQ2 inh baseline: 0.81

How did Cc1ccc(C(=O)N/C(=C/c2ccco2)C(=O)Nc2cccc(C)c2)cc1 do in these assays?
KCNQ2 inh: inactive; KCNQ2 inh baseline: -0.31

How did Cc1ccc(N2C(=O)CC(Sc3ncn[nH]3)C2=O)cc1 (stereo not given) do in these assays?
KCNQ2 inh: inactive; KCNQ2 inh baseline: -0.48

What do the screens show for `CCCc1ccc(OCc2ccc(C(=O)N3CCN(c4ccccn4)CC3)o2)c(OC)c1`?
KCNQ2 inh: -5.9*; KCNQ2 inh baseline: 0.01*

How did Cc1cc(SCC(=O)O)nc2ccccc12 do in these assays?
KCNQ2 inh: inactive; KCNQ2 inh baseline: 0.9

What do the screens show for `CSc1ccccc1-c1nnc(-c2ccccc2)o1`?
KCNQ2 inh: inactive; KCNQ2 inh baseline: -2.1

How did O=C(CC12CC3CC(CC(C3)C1)C2)NC(=S)NCc1ccccc1 do in these assays?
KCNQ2 inh: inactive; KCNQ2 inh baseline: -0.99

Results for O=C(c1ccc(-n2cncn2)c([N+](=O)[O-])c1)N1CCN(S(=O)(=O)c2ccccc2Br)CC1 ?
KCNQ2 inh: inactive; KCNQ2 inh baseline: -0.47

What do the screens show for `C=CCN1C(=O)/C(=C2/Sc3ccc(OC)cc3N2C)SC1=NCc1ccccc1`?
KCNQ2 inh: inactive; KCNQ2 inh baseline: 0.09

What do the screens show for `CCC1(c2ccc(F)cc2)NC(=O)N(CC(=O)N2c3ccccc3NC(=O)C2(C)C)C1=O` (stereo not given)?
KCNQ2 inh: inactive; KCNQ2 inh baseline: 0.9

What do the screens show for `CC1CCN(C(=O)CSc2nnc(CSc3ncccn3)n2C)CC1`?
KCNQ2 inh: inactive; KCNQ2 inh baseline: 1.5

What do the screens show for `CCOc1ncccc1C(=O)Nc1nnc(C(CC)CC)s1`?
KCNQ2 inh: inactive; KCNQ2 inh baseline: -2.1

Results for CC(=O)N(c1ccccc1C)S(=O)(=O)c1ccc(Cl)cc1 ?
KCNQ2 inh: inactive; KCNQ2 inh baseline: -1.4

How did CC1CC(C(F)(F)F)n2nc(C(=O)O)cc2N1 (stereo not given) do in these assays?
KCNQ2 inh: inactive; KCNQ2 inh baseline: -0.25

How did Cn1c(SCC#N)nnc1-c1cccnc1 do in these assays?
KCNQ2 inh: inactive; KCNQ2 inh baseline: -1.7

What do the screens show for `CN(C)Cc1ccccc1Sc1ccc2c(c1)CCCC2`?
KCNQ2 inh: inactive; KCNQ2 inh baseline: 0.18

Results for CCC(C)[C@H](NC(=O)NCC1CCCO1)C(=O)OC (stereo not given in full) ?
KCNQ2 inh: inactive; KCNQ2 inh baseline: -1.2

What do the screens show for `Cc1ccc(NC(=O)c2ccc(CNc3c(N4CCC(C)CC4)c(=O)c3=O)cc2)cc1`?
KCNQ2 inh: inactive; KCNQ2 inh baseline: 0.27

What do the screens show for `C=CCn1c(N)c(C(=O)Nc2ccc(C)c(C)c2)c2nc3ccccc3nc21`?
KCNQ2 inh: inactive; KCNQ2 inh baseline: 0.79

How did CCCCN(CC)S(=O)(=O)c1ccc(C(=O)N(CCCN(C)C)c2nc3cc(C)cc(C)c3s2)cc1 do in these assays?
KCNQ2 inh: inactive; KCNQ2 inh baseline: -0.86

Results for Cc1cc([N+](=O)[O-])cc2c1NC(=O)C2(O)N1CCCCCC1 (stereo not given) ?
KCNQ2 inh: inactive; KCNQ2 inh baseline: -0.03

How did O=C(N/N=C/c1ccc(O)cc1)c1csc2c1CCCC2 do in these assays?
KCNQ2 inh: inactive; KCNQ2 inh baseline: 1.4

How did Cc1nnc(NC(=O)CSc2nnc(Cc3cccn3C)n2CCc2ccccc2)s1 do in these assays?
KCNQ2 inh: inactive; KCNQ2 inh baseline: -1.6

How did Cn1c(=O)[nH]c(=O)c2c1nc(Br)n2C/C=N/NC(N)=S do in these assays?
KCNQ2 inh: inactive; KCNQ2 inh baseline: 0.5

What do the screens show for `CCc1nc(CNC(=O)C2CCC(=O)N(Cc3ccccc3F)C2)no1` (stereo not given)?
KCNQ2 inh: inactive; KCNQ2 inh baseline: -0.05

What do the screens show for `O=C(CCc1nc2ccccc2[nH]1)Nc1ccc2c(c1)OCO2`?
KCNQ2 inh: inactive; KCNQ2 inh baseline: -2.9

How did O=C(NC(Cc1c[nH]c2ccccc12)C(=O)OCC(=O)c1cccc2ccccc12)c1cccs1 (stereo not given) do in these assays?
KCNQ2 inh: inactive; KCNQ2 inh baseline: -0.82

How did C=CCN(c1ccccc1)S(=O)(=O)c1cccc(C(=O)NCC(c2ccc(F)cc2)N2CCOCC2)c1 (stereo not given) do in these assays?
KCNQ2 inh: -6*; KCNQ2 inh baseline: 0.49*

What do the screens show for `COC(=O)CN1C(c2ccccc2O)Nc2ccc(Br)cc2C1c1ccccc1` (stereo not given)?
KCNQ2 inh: inactive; KCNQ2 inh baseline: 1.4

Results for O=C(Nc1ccc(-n2nncc2-c2ccco2)cc1)c1cccc(F)c1 ?
KCNQ2 inh: inactive; KCNQ2 inh baseline: -0.04

What do the screens show for `O=C(O)Cn1nnc(-c2ccc(OCc3ccccc3Cl)cc2)n1`?
KCNQ2 inh: inactive; KCNQ2 inh baseline: 0.26

Results for COc1ccc(Cl)cc1NC(=O)CN(c1ccccc1)S(=O)(=O)N(C)C ?
KCNQ2 inh: inactive; KCNQ2 inh baseline: -0.12

What do the screens show for `CN(C)CC(C)(C)CNS(=O)(=O)c1ccc(Cl)c(Cl)c1`?
KCNQ2 inh: inactive; KCNQ2 inh baseline: 1.2

Results for CCOC(=O)/C(=N\NC(=O)c1ccccc1)c1ccccc1 ?
KCNQ2 inh: inactive; KCNQ2 inh baseline: -0.4

Results for O=C1c2ccccc2NC(c2ccc([N+](=O)[O-])cc2)N1O (stereo not given) ?
KCNQ2 inh: inactive; KCNQ2 inh baseline: 2.3

What do the screens show for `Cc1cc(C(=O)NC(CC(C)C)C(=O)O)cc(C)c1[N+](=O)[O-]` (stereo not given)?
KCNQ2 inh: inactive; KCNQ2 inh baseline: 0.07

What do the screens show for `COc1ccc(Cc2c(O)nc(SCC(=O)N3CCCCCC3)[nH]c2=O)cc1`?
KCNQ2 inh: inactive; KCNQ2 inh baseline: 1.5

Results for CCOC(=O)N1CCN(c2ccc(C(F)(F)F)cn2)CC1 ?
KCNQ2 inh: inactive; KCNQ2 inh baseline: 1.8

What do the screens show for `CCOc1cc(CO)c(Br)cc1OCC(=O)O`?
KCNQ2 inh: inactive; KCNQ2 inh baseline: 0.78

How did COc1ccc(C(=O)CSc2nnc(CNc3ccc(C)cc3C)n2Cc2ccco2)cc1 do in these assays?
KCNQ2 inh: inactive; KCNQ2 inh baseline: 0.63

How did C/C(CC1CC(C)OC1=O)=N\NC(N)=S (stereo not given) do in these assays?
KCNQ2 inh: inactive; KCNQ2 inh baseline: -0.66

How did CC(C)OCCCN1CN(S(=O)(=O)c2ccc(Cl)cc2)c2nc3ccccc3nc21 do in these assays?
KCNQ2 inh: inactive; KCNQ2 inh baseline: -1.6

What do the screens show for `CN(CC(=O)Nc1ccc(SC(F)F)cc1)C1CCCCC1`?
KCNQ2 inh: inactive; KCNQ2 inh baseline: -1.2

How did CCN=C1SC(C(=O)Nc2ccccc2)CC(=O)N1CC (stereo not given) do in these assays?
KCNQ2 inh: inactive; KCNQ2 inh baseline: 1.2

How did CN(C)CCNC(=O)/C(=N\O)c1ccccn1 do in these assays?
KCNQ2 inh: inactive; KCNQ2 inh baseline: 5.3

Results for CCCOc1ccc(/C=N/NC(=O)c2c(-c3ccccc3)noc2C)cc1OC ?
KCNQ2 inh: inactive; KCNQ2 inh baseline: -1.9

What do the screens show for `COc1cc(NC(=S)N2CCN(CCO)CC2)cc(OC)c1`?
KCNQ2 inh: inactive; KCNQ2 inh baseline: 1.1

How did COc1ccccc1/C=C(/NC(=O)c1ccc(Cl)cc1Cl)C(=O)O do in these assays?
KCNQ2 inh: inactive; KCNQ2 inh baseline: 0.76
